Bioassay records from PubChem.
ugtP null kill: compounds lethal to S. aureus RN4220 ugtP deletion mutant; OD600 growth, 16 h; some inactives read as strong as hits; growth inhibition, % (concentration not given with the values); 0.54% of 330,000 active;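 active = z-score under -3 and OD600 up to 0.15 on both plates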;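 note: plate controls were untreated wells for no effect and antibiotic for full effect; wells of about 80 µL received 100 nL stock; the first replicate is given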
RN4220 kill: S. aureus RN4220 growth inhibition. 0.33% of 330,000 active. AID 1259311. inhibition, % (test concentration not listed). OD600, 16 h;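 active = z-score of -3 or lower and OD600 up to 0.18 on both plates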;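 note: plate controls were untreated cells for no effect and reference antibiotic for full effect; stock transfer was 100 nL into about 80 µL; one replicate is shown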
BJeLR viability: kills HRASV12-expressing BJeLR cells; BJeLR (HRASV12) viability, CellTiter-Glo ATP luminescence, 48 h; reference of the scale not given here; inhibition, % (test concentration not listed); 0.17% of 300,000 active; AID 1554;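 active = replicate mean above 50%; inconclusive = above 50% but judged a plate artefact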;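 note: 50 nL library stock added to about 25 µL; numbers are from one replicate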
Mtb hypoxia rep: reduces hypoxia-regulated biosensor signal in M. tuberculosis. M. tuberculosis hypoxia-regulated fluorescent reporter, fluorescence. fluorescence inhibition, % (no concentration beside the values). 0.1% of 300,000 active. AID 1159583;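 active = 35 to 45% if threefold the growth effect, above 45% if 1.5-fold the growth effect; inactive = the rest, general growth blockers included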;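 note: wells of about 50 µL received 100 nL stock; 0% = vehicle wells and 100% = reference inhibitor wells; whole bacteria with a GFP reporter of the hypoxia response; strong numbers were not always called active; many hits fall short of the cut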
PrP UTR inh: inhibition of PrP 5' UTR reporter expression. cell-based PrP 5' UTR mRNA reporter, plate reader. inhibition, % (test concentration not listed). 0.35% of 340,000 active;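 active = every replicate at 50% or more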;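 note: 0 = median of the neutral control wells; tested in H4 reporter cells; numbers are from one replicate; inactives centre near -14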
Autofluor counter: flagged as autofluorescent in microsphere protease counterscreen; fluorescence intensity (test concentration not listed); 3.1% of 360,000 active; compound autofluorescence counterscreen, microsphere flow cytometry; active compounds read high;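 active = at least 3 SD above the mean of all compounds, about 16000 in these data; inconclusive = too few beads counted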;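 note: 100 nL of 1 mM stock went into each well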
Mtb hypoxia rep growth: second read-out of Mtb hypoxia rep, no call of its own (marks repeat the call); growth inhibition, %; measured here: M. tuberculosis growth (absorbance);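 0% = vehicle and 100% = reference antibiotic; read after six days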
* hit, by the source's call; ? = inconclusive; / = not tested or not shown.

Screens in order – Mtb hypoxia rep	RN4220 kill	Autofluor counter	PrP UTR inh	ugtP null kill	BJeLR viability	Mtb hypoxia rep growth
- COc1cccc(OC)c1C(=O)OCC(=O)/C(C#N)=C(\C)N
  4	4.1	3337	-6	7	-8	-1
- CCOC(=O)CSc1nc2ccc(C)cc2cc1C#N
  -17	1.2	9011	-141	7	-2	3
- CCCn1c(SCC(=O)Nc2cc(C)on2)nc2c1c(=O)n(C)c(=O)n2C
  11	3.0	22114*	-2	4	3	11
- C[C@H]1C(=O)N(c2ccccc2)[C@@H]1c1ccccc1
  5	3.2	3713	-6	12	/	6
- COc1ccccc1-n1c(=S)sc2c(=O)n(Cc3ccco3)c(SC)nc21
  3	-1.7	8003	-20	37	-4	-13
- O=C(NS(=O)(=O)c1ccccc1)c1ccccc1
  15	5.3	6017	-20	3	0	6
- Cc1c(C(=O)N2CCCCC2)c(S(=O)(=O)NCc2ccc(Cl)cc2)c(C)n1C
  16	4.6	4207	-38	-6	1	3
- COC(=O)c1cccc(Oc2cccc(Cl)n2)c1
  6	4.8	2015	-13	9	-2	12
- O=C1CCC(C(=O)N2CCN(c3cnccn3)CC2)CN1CCc1ccc(Cl)cc1 (stereo not drawn)
  7	-3.6	5224	-4	8	3	6
- Cc1ccc(C(=O)C(C)OC(=O)Cn2[nH]c(=O)c3ccccc3c2=O)cc1C (stereo not drawn)
  -11	0.5	5429	-6	3	9	-14
- CCOC(=O)/C=C/c1ccc2c(c1)S(=O)(=O)N(Cc1ccc(OC)cc1)[C@H]2CC(=O)OCC
  /	/	3094	-10	/	15	/
- O=C1C2CC3C=CC2(O3)C2OCCCN12 (stereo not drawn)
  9	1.8	/	/	-2	/	12
- COC(=O)c1ccc(COc2cc([N+](=O)[O-])cc3cccnc23)o1
  11	12	4045	-30	4	-4	-1
- CN(C)CCCn1c(SCC(=O)Nc2nc(-c3cccc(Br)c3)cs2)nc2ccccc2c1=O
  /	101*	6604	-13	100*	34	/
- O=C(NC1CC2CCC1C2)C1COc2ccccc2O1 (stereo not drawn)
  /	1.2	3151	-33	7	6	/
- O=C1N(Cc2cccnc2)C[C@@H]2C[C@@H](c3ccc(-c4ccccc4)cc3)N3CCC[C@@]123
  2	0.7	16035	-11	-2	-14	-3
- O=C(COC(=O)Cn1ccc(=O)[nH]c1=O)Nc1ccc(F)cc1
  5	0.4	3603	-9	4	/	12
- Cc1ccc2c(c1)N(CC(=O)NCc1ccco1)C(=O)CO2
  -9	-2.3	7286	-27	-2	-3	6
- O=C(COC(=O)C1CCN(c2ccc(C(F)(F)F)cn2)CC1)Nc1cc(F)ccc1F
  0	0.5	?	-27	1	-9	-1
- O=C(O)c1ccccc1N1C(=O)c2cccc3cccc(c23)C1=O
  /	4.4	4538	-19	1	-8	/
- CCCn1c(CN2CCN(C(=O)c3ccco3)CC2)nc2c1c(=O)n(C)c(=O)n2C
  6	-5.2	5827	-1	-2	-7	8
- COC(=O)c1cc(OC)c(OC)cc1NC(=O)Nc1ccc(OC)cc1OC
  8	4.3	10136	-4	-2	1	1
- Cc1cccc(N2CCN(c3ccc4cc(S(=O)(=O)N5CCCCC5)ccc4n3)CC2C)c1 (stereo not drawn)
  8	5.1	5394	-2	6	9	10
- O=C(O)c1cc(-c2ccc(C=NNc3ccc([N+](=O)[O-])cn3)o2)ccc1Cl
  -8	4.5	/	/	1	/	0
- CC1(C)CC(NC(=O)c2ccccc2F)CC(C)(C)N1
  6	2.2	4005	-29	7	-8	3
- O=C(O)C1=C[C@H](c2csc3ccccc23)C[C@H](OCc2ccc(CO)cc2)O1
  /	/	3847	-30	/	-2	/
- CCOc1ccc(/C=N/OC(C)C(=O)NCc2ccc3c(c2)OCO3)cc1 (stereo not drawn)
  /	/	2825	-25	/	-14	/
- Cc1cc(C)n(N=Cc2ccc(O)cc2)c(=O)c1C#N
  12	3.7	/	/	10	/	7
- COC(=O)C(O)(c1ccc(N(C)C(=O)c2cccs2)cc1)C(F)(F)F (stereo not drawn)
  -4	1.8	?	-24	1	7	-7
- O=C(Nc1ncccc1O)c1ccc(Oc2ccccc2)cc1
  15	10	5175	-141	3	7	6

Next part; the last 3 above are carried over.
Screens in order – Mtb hypoxia rep	RN4220 kill	Autofluor counter	PrP UTR inh	ugtP null kill	BJeLR viability	Mtb hypoxia rep growth
- Cc1cc(C)n(N=Cc2ccc(O)cc2)c(=O)c1C#N
  12	3.7	/	/	10	/	7
- COC(=O)C(O)(c1ccc(N(C)C(=O)c2cccs2)cc1)C(F)(F)F (stereo not drawn)
  -4	1.8	?	-24	1	7	-7
- O=C(Nc1ncccc1O)c1ccc(Oc2ccccc2)cc1
  15	10	5175	-141	3	7	6
- N#Cc1cc(-c2cccc(Cl)c2)c[nH]c1=O
  1	3.7	4141	-22	-9	-1	0
- COc1cccc(NC(=O)C(C)N2C(=O)c3ccccc3C2=O)c1 (stereo not drawn)
  13	0.2	3605	-30	6	21	2
- CCOc1cc(CNCCCN2CCOCC2)cc(Br)c1OCc1ccccc1Cl
  /	-2.2	3492	-37	-20	8	/
- Cc1cc(C)c(OCC(=O)N(C)CC(=O)Nc2ccc(N3CCOCC3)cc2)c(C)c1
  -4	-2.7	5989	10	-5	-9	10
- CNc1ccc(/C=C/C(=O)c2ccc(C)cc2)cc1[N+](=O)[O-]
  2	3.3	2367	-24	-7	-2	2
- [O-]/C(=C(\C(=S)NCc1ccco1)[n+]1ccccc1)c1ccccc1Br
  /	3.5	3818	-13	4	4	/
- COc1ccc(C(=O)C(OC(=O)c2ccccc2Cl)c2ccccc2)cc1 (stereo not drawn)
  17	-7.4	2683	-68	19	3	7
- O=C(NN=Cc1ccncc1)/C(=C/c1ccccc1)NC(=O)c1ccccc1
  8	4.9	/	/	0	/	7
- CCN(CC)c1ccc(C=O)c(OC)c1
  6	4.3	3606	-16	6	6	0
- O=C(O)[C@H](Cc1ccccc1)NC(=O)N1CCN(c2cccc(C(F)(F)F)c2)CC1
  9	4.1	3277	-15	1	-6	6
- CC1CCCCC12NC(=O)N(CC(=O)c1ccc(Cl)s1)C2=O (stereo not drawn)
  -6	-0.9	5667	-33	-5	4	5
- CC(C)(C)NCC(=O)NN=Cc1ccc(OCc2ccccc2)cc1
  13	-1.4	/	/	4	/	-3
- CCc1ccc(CCC(=O)Nc2ccc(C)cc2C)o1
  -2	1.0	9297	/	3	-4	2
- CC(=O)c1c(C)[nH]c(C(=O)CSc2nnc(N)s2)c1C
  -5	1.2	4474	55*	-11	-4	-8
- CCN1c2ccccc2-c2nc3ccccc3n2C1c1cccnc1 (stereo not drawn)
  12	-3.1	9473	-15	23	0	7
- O=C(CCN=C1NS(=O)(=O)c2ccccc21)OCC(=O)c1ccc(F)cc1
  2	-0.5	?	-9	7	0	6
- CC(=O)N(c1nc(/C=C\C(=O)O)cs1)c1ccccc1F
  11	2.2	4748	-15	6	12	3
- Cc1ccccc1N(C(=O)CCC(=O)Nc1ccccn1)C(C(=O)NC(C)C)c1ccc(F)cc1 (stereo not drawn)
  -19	3.4	4280	9	-5	-18	-3
- CC(C)(C)c1ccc(OCCNCc2ccccc2)cc1
  6	4.0	4121	-30	35	7	9
- CCCCn1c(N)c(N(C)C(=O)c2cn(-c3ccccc3)nc2-c2ccccc2)c(=O)[nH]c1=O
  6	6.2	8011	-17	11	/	8
- O=C(Cn1nc(-c2ccco2)ccc1=O)Nc1cc(C(F)(F)F)ccc1Cl
  -1	3.1	5049	-14	4	-2	1
- CC(C)(O)C(=O)NNC(=S)NCc1ccco1
  9	6.0	4243	-26	4	4	5
- CC(/C=C/c1ccc(Cl)o1)=C\C(=O)O
  /	2.9	2323	-17	5	3	/
- CCOC(=O)NCN1C(=O)C2C3C=CC(C3)C2C1=O (stereo not drawn)
  -1	4.9	3280	-2	6	-10	-1
- CN(CCC#N)C(=O)COC(=O)c1ccc(Cl)c(S(=O)(=O)N(C)c2ccccc2)c1
  1	9.6	4440	-10	22	1	3
- COc1ccc(C=NNC(=O)c2ccc(Br)o2)cc1Cn1cc([N+](=O)[O-])cn1
  8	4.8	/	/	-7	/	9
- CCCOC(=O)CCn1c(=S)oc2ccccc21
  9	5.6	6671	-32	10	6	1
- CC1CCCC12NC(=O)NC2=O (stereo not drawn)
  23	2.8	4171	-15	6	/	11
- COc1ccc(-n2cnnc2SCC(=O)Nc2cccnc2Cl)cc1
  3	5.8	4907	-13	5	2	4
- C/C(=N\NC(=O)CNC(=O)C1COc2ccccc2O1)c1ccc(Cl)cc1 (stereo not drawn)
  /	/	4221	-18	/	-7	/
- CCOC(=O)CNC(=O)c1ccc2c(c1)OCCO2
  /	4.5	2624	-44	8	1	/
- CN1CCN(c2nc(-c3ccc(Cl)c(Cl)c3)nc3ccccc23)CC1
  0	-5.2	4031	-10	-10	2	-7
- O=C(CN1CCCC1=O)NC1CCCc2c1cnn2-c1cc(F)cc(F)c1 (stereo not drawn)
  1	3.2	3885	-15	14	3	-7
- CCCCCCCCCS(=O)(=O)N/N=C/c1cccc([N+](=O)[O-])c1
  /	/	19668*	-7	/	15	/
- Cc1ccc(-c2n[nH]c(=S)n2/N=C/c2sccc2C)cc1
  /	/	5785	-11	/	-7	/
- O=C1N(c2ccccc2)C(c2cccnc2)N2CCCN12 (stereo not drawn)
  15	10	4205	17	2	0	3
- Cc1cccc(C(=O)Nc2ccccc2NC(=O)c2cccc(C)c2)c1
  -5	0.9	3471	1	-14	0	-2
- Cc1nc2c(-c3ccc(Cl)cc3)c(C)[nH]n2c(=O)c1Cc1ccccc1
  6	100*	4550	5	100*	15	2
- Cc1c2c(n3c(nc4ccccc43)c1C#N)N(CCN1CCOCC1)CC2
  -8	2.7	4008	-16	-11	5	11
- O=C(CSc1nnc(SCc2ccc(Cl)cc2)s1)N/N=C/c1c[nH]c2ccccc12
  /	/	2067	-25	/	-2	/
- CN1CCC(N(C)S(=O)(=O)c2ccc(NC(=O)c3cccc(C#N)c3)cc2)CC1
  4	2.0	6352	-21	10	/	-8
- COc1cc(Br)cc2cc(C(=O)OC3CCN(C)CC3)c(=O)oc12
  0	2.0	8138	-33	-3	4	7
- Cc1cccc(-n2ncc3c(N4CC(C)CC(C)C4)ncnc32)c1 (stereo not drawn)
  17	-1.9	5668	-70	0	-2	9
- O=S1(=O)CCOC[C@H](c2ccccc2)N1Cc1cccc(F)c1
  14	-14	3698	0	2	26	4
- CCC(C)(C)n1nnnc1C(c1ccc(OC)c(OC)c1)N1CCN(c2ccc(F)cc2)CC1 (stereo not drawn)
  /	0.7	5701	-11	-3	1	/
- COc1ccc(Cc2[nH]n3c(=O)cc(C)nc3c2-c2ccccc2)cc1
  6	2.8	2748	-11	2	0	-2
- COc1ccc2c(c1)c(C(=O)NN=Cc1ccc(Cl)cc1)c(C)n2C
  14	-0.3	/	/	5	/	7
- C(=NNc1nc2ccccc2[nH]1)c1cccc2nccnc12
  1	1.0	/	/	-5	/	5
- O=C(NCCc1c[nH]c2ccccc12)C(=O)NCC(c1ccco1)N1CCN(c2ccccc2F)CC1 (stereo not drawn)
  7	-0.3	10803	-2	2	-8	6
- Cc1ccc(S(=O)(=O)Nc2cccnc2)cc1C
  5	3.5	3733	-28	1	-5	-3
- COc1ccc(NC(=O)C2CC=CC3CCN(Cc4ccccc4)C(=O)C32)cc1 (stereo not drawn)
  7	3.1	/	/	-8	/	6
- Cc1cccc(N2CCN(C(=O)CNC(=O)C3CCCCC3)CC2)c1C
  -8	3.4	4551	-20	23	/	-2
- COC(=O)CCC(=O)NNC(=O)c1cccc(Br)c1
  14	3.6	2101	-2	3	7	11
- O=C(CSc1nc2c(sc3ccccc32)c(=O)n1CCO)NCc1ccco1
  8	3.2	8597	-10	-7	-12	-2
- Cc1ccc2ncccc2c1NC(=S)NC(=O)c1ccccc1
  0	5.5	4273	-14	3	-8	10
- Cc1ccc(C)c(/C=N/NC(=S)NC(C)C)c1
  /	/	1938	-17	/	9	/
- COc1ccc(OC)c(-c2c[n+](=O)c3c(n2[O-])CCCC3)c1
  12	5.5	6716	-9	7	-2	6
- CN(C)c1ccc(C=NNC(=O)CCCCCNC(=O)c2ccccc2)cc1
  12	2.9	/	/	12	/	8
